BJeLR lethal: MLPCN primary cell-based screen for lethality selective to Ras in HRASV12 cells. BJeLR (HRASV12) viability, CellTiter-Glo ATP luminescence, 48 h; reference of the scale not given here. inhibition, % (concentration not given with the values). 300,000 tested, 0.17% active;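 active = replicate mean above 50%; inconclusive = above 50% but judged a plate artefact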;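 note: 50 nL library stock added to about 25 µL; numbers are from one replicate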
Sa RN4220 lethal: growth inhibition of S. aureus RN4220, primary screen, OD600 | inhibition, % (no concentration beside the values) | 16 h | 330,000 tested, 0.33% active | AID 1259311, 2017;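 active = z-score of -3 or lower and OD600 up to 0.18 on both plates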;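 note: plate controls were untreated cells for no effect and reference antibiotic for full effect; stock transfer was 100 nL into about 80 µL; one replicate is shown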
PrP UTR inh: inhibition of PrP 5' UTR reporter expression; cell-based PrP 5' UTR mRNA reporter, plate reader; inhibition, % (no concentration beside the values); 340,000 tested, 0.35% active;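 active = every replicate at 50% or more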;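 note: 0 = median of the neutral control wells; tested in H4 reporter cells; numbers are from one replicate; inactives centre near -14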
Bead autofluor: flagged as autofluorescent in microsphere protease counterscreen; 360,000 tested, 3.1% active; fluorescence intensity (test concentration not listed); AID 624483; compound autofluorescence counterscreen, microsphere flow cytometry; hits give high values;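 active = at least 3 SD above the mean of all compounds, about 16000 in these data; inconclusive = too few beads counted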;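 note: 100 nL of 1 mM stock went into each well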
ugtP null kill: growth inhibition of ugtP-null S. aureus, primary screen, RN4220 ugtP deletion, OD600; 16 h; some inactives read as strong as hits; growth inhibition, % (no concentration beside the values); 330,000 tested, 0.54% active;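 active = z-score under -3 and OD600 up to 0.15 on both plates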;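 note: plate controls were untreated wells for no effect and antibiotic for full effect; wells of about 80 µL received 100 nL stock; the first replicate is given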
Mtb hypoxia inh: PubChem AID 1159583; 300,000 tested, 0.1% active; M. tuberculosis hypoxia-regulated fluorescent reporter, fluorescence; fluorescence inhibition, % (test concentration not listed);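 active = 35 to 45% if threefold the growth effect, above 45% if 1.5-fold the growth effect; inactive = the rest, general growth blockers included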;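 note: wells of about 50 µL received 100 nL stock; 0% = vehicle wells and 100% = reference inhibitor wells; whole bacteria with a GFP reporter of the hypoxia response; strong numbers were not always called active; many hits fall short of the cut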
Mtb hypoxia inh growth: second read-out of Mtb hypoxia inh, no call of its own (marks repeat the call); growth inhibition, %; measured here: M. tuberculosis growth (absorbance);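 0% = vehicle and 100% = reference antibiotic; read after six days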
Numbers without * were called inactive; ? = inconclusive; nt = no result given.

SMILES	BJeLR lethal	Sa RN4220 lethal	PrP UTR inh	Bead autofluor	ugtP null kill	Mtb hypoxia inh	Mtb hypoxia inh growth
CCOC(=O)CSCC(=O)Nc1nnc(-c2cccc([N+](=O)[O-])c2)s1	-8	-6.9	-13	6049	0	10	14
O=C(CCS(=O)(=O)Cc1ccccc1)NCCc1ccccc1	10	-1.5	4	3008	1	14	-2
CC(=O)c1cccc(CN2CCN(CCC(C)C)C(CCO)C2)c1 (configuration not stated)	8	1.5	-18	3859	5	8	10
CCc1nc(SCC(=O)OC)c2c3c(sc2n1)COC(C)(C)C3	1	3.6	-22	3561	17	2	1
CCNc1nc(NCC)nc(Oc2ccc(C(=O)OC)cc2)n1	-3	1.3	-14	4377	-1	3	-7
Cc1cccc(NC2CNC(=O)NC2=O)c1 (configuration not stated)	nt	1.2	-15	4194	6	20	7
COc1ccc(OCCCC(=O)Nc2cc([N+](=O)[O-])ccc2C)cc1	16	3.8	-12	?	13	nt	nt
CC(C)c1nnc(NC(=O)Cc2ccc(Br)cc2)s1	0	3.9	-20	2611	3	2	8
O=C1/C(=C/c2cccnc2)SC(=S)N1c1ccc(F)cc1	8	-7.4	-14	2697	-3	-7	-9
CC1(C)CC(CCC(=O)NC(=S)Nc2ccccc2Cl)C(=O)O1 (configuration not stated)	-5	-1.0	-16	2596	4	6	13
COc1ccc(OC)c(/C=N\NC(=O)CSc2nnc(CCCc3ccc(OC)c(C)c3)o2)c1	5	nt	-6	3036	nt	nt	nt
CCOc1ccc(NS(=O)(=O)c2cc(NC(=O)CCNC(=O)c3ccco3)ccc2OC)cc1	nt	-5.1	-33	4065	24	12	8
O=S(=O)(Nc1ccc(O)c(NS(=O)(=O)c2ccccc2)c1)c1ccccc1	2	3.4	-3	5654	-1	-4	6
c1ccc2c3nnc4n(c-3nc2c1)CCCS4	-1	1.7	-41	6362	6	7	3
CN(N)c1nc(C(F)(F)F)nc2ccccc12	-5	5.4	-16	3482	3	8	8
COc1cc(C=NNc2nc3ccccc3s2)ccc1OC(=O)c1ccccc1F	nt	11	nt	nt	-10	17	-9
COC(=O)c1cc(S(=O)(=O)N2CCCC(C)C2)c[nH]1 (configuration not stated)	-8	3.7	-7	5352	-5	14	7
Cc1cc(C)n2nc(C(=O)OCC(=O)Nc3ccc4c(c3)OCO4)nc2n1	0	-4.9	-17	4515	5	nt	nt
CCc1ccccc1NC(=O)CN(C)C(=O)CSc1nn(-c2ccccc2)c(=S)s1	8	2.7	-39	2979	2	3	2
COc1cccc2c(=O)n(CC(=O)Nc3ccccc3F)ccc12	-1	6.0	12	5968	-4	-2	-2
CCc1ccc(C2NC(=O)c3ccccc3O2)cc1 (configuration not stated)	6	7.1	-12	3042	12	6	-3
CC1CN(S(=O)(=O)c2cccc(C(=O)NCCc3ccc(S(N)(=O)=O)cc3)c2)CC(C)O1 (configuration not stated)	nt	-0.6	-23	3724	-4	-8	6
O=C(Nc1nccs1)C1CCCN1S(=O)(=O)c1ccc(F)cc1 (configuration not stated)	3	-1.2	-15	4255	8	nt	nt
CC(=O)O[C@@H]1[C@H](OC(=O)CC(C)C)c2c(ccc3ccc(=O)oc23)OC1(C)C	-2	nt	-30	3659	nt	nt	nt
Cc1ccsc1C=NNC(=O)c1ccc2nc[nH]c2c1	nt	4.7	nt	nt	7	2	3

Next part (5 carried over from the part before).
SMILES	BJeLR lethal	Sa RN4220 lethal	PrP UTR inh	Bead autofluor	ugtP null kill	Mtb hypoxia inh	Mtb hypoxia inh growth
CCc1ccc(C2NC(=O)c3ccccc3O2)cc1 (configuration not stated)	6	7.1	-12	3042	12	6	-3
CC1CN(S(=O)(=O)c2cccc(C(=O)NCCc3ccc(S(N)(=O)=O)cc3)c2)CC(C)O1 (configuration not stated)	nt	-0.6	-23	3724	-4	-8	6
O=C(Nc1nccs1)C1CCCN1S(=O)(=O)c1ccc(F)cc1 (configuration not stated)	3	-1.2	-15	4255	8	nt	nt
CC(=O)O[C@@H]1[C@H](OC(=O)CC(C)C)c2c(ccc3ccc(=O)oc23)OC1(C)C	-2	nt	-30	3659	nt	nt	nt
Cc1ccsc1C=NNC(=O)c1ccc2nc[nH]c2c1	nt	4.7	nt	nt	7	2	3
COc1ccccc1CN1CCN(C(=O)Cc2ccccc2)CC1	-3	0.3	-31	2878	2	nt	nt
N#CC1=C(N)Oc2c(c(=O)oc3ccccc23)C1c1ccccc1OC(=O)c1cccs1 (configuration not stated)	-17	nt	-12	2435	nt	nt	nt
O=C(Cc1cccs1)N1CCN=C1SCc1cccc(F)c1	-2	2.1	nt	3858	2	4	0
Cc1nn(C)cc1CN(C)C(=O)c1ccc(OC2CCN(Cc3ccccn3)CC2)cc1	2	2.7	-13	4519	3	1	-8
O=C(CCC(=O)c1cccs1)OCC(=O)c1ccc(Cl)s1	-2	-6.7	-20	2825	-4	4	7
N/C(=N\c1nc2ccccc2o1)NC(=O)c1cccc(Cl)c1	-2	0.7	nt	4365	0	-1	-8
CN(CC(=O)Nc1ccc(F)cc1[N+](=O)[O-])Cc1ccccc1	5	3.0	-31	4087	2	3	14
O=C(NC1CCCc2ccccc21)C1CCN(S(=O)(=O)c2cnc[nH]2)CC1 (configuration not stated)	9	-4.2	-4	4610	1	9	10
Cc1ccc(NS(=O)(=O)c2ccc(-c3ccc(=O)[nH]n3)o2)cc1N(C)C	8	6.7	-10	5051	12	0	1
COC(=O)Cn1c(C)c(C#N)c2ccccc21	4	-0.5	-12	4935	4	nt	nt
COC(=O)c1cc(C(=O)c2c(C)cc3ccccn23)cc([N+](=O)[O-])c1	7	-0.7	-32	5228	5	3	1
Cn1c(=NNC(=O)c2cccc(OC(F)F)c2)sc2ccccc21	nt	3.5	nt	nt	-7	18	4
COc1cc2c(cc1OC)C1(Nc3c-2c(C)nn3-c2ccccc2)C(=O)Nc2ccccc21 (configuration not stated)	nt	-15	-6	3287	-11	13	8
O=C(O)CCSCC(=O)Nc1c(C(=O)C2CC2)oc2ccccc12	3	1.1	-14	4048	-6	nt	nt
Cc1ccc(-n2nc(C(N)=O)nc2-c2ccccc2)cc1	6	2.9	-13	3694	8	7	2
O=C(Cn1cncn1)NN=Cc1cccc2ccccc12	nt	-2.4	nt	nt	-4	-4	0
COc1cccc(N2CCN(c3ccc4nnc(CCC(=O)N5CCC(C)CC5)n4n3)CC2)c1	8	7.3	-25	5295	10	10	7
COc1ccc(NS(=O)(=O)c2ccc(F)c(F)c2F)cc1S(=O)(=O)N1CCOCC1	nt	4.1	-12	3671	3	2	5
COc1cc(NC(=O)[C@H]2CSCN2C(=O)[C@@H]2CCC(=O)N2)cc(OC)c1OC	-2	1.2	-2	5631	1	6	17
NC(=O)C1CCN(C(=O)CCSCc2ccccc2)CC1	-5	2.3	-28	4350	0	17	3
CCCCC(=O)Nc1ccc(C(=O)Nc2ccc3c(c2)OCO3)cc1	3	1.4	-27	9234	7	9	6
CCOC(=O)CN(C(=O)CNC(=O)c1ccco1)C(C(=O)NC1CCCCC1)c1cccc(OC)c1 (configuration not stated)	-19	-0.9	-21	3003	3	nt	nt
COCCN(C(=O)COC(=O)CCOc1ccccc1)c1c(N)n(Cc2ccccc2)c(=O)[nH]c1=O	5	-0.5	-6	5136	6	4	5
Cc1nc2c(C)cccc2c2c1CCN2c1ccccc1F	7	0.4	-55	3906	-3	12	6
Cc1ccc(N=Nc2c(O)[nH]c(=O)[nH]c2=O)c([N+](=O)[O-])c1	-8	1.4	-8	4408	1	7	6

Filtered by structure: the entries above containing a furan ring, fused or not.
SMILES	BJeLR lethal	Sa RN4220 lethal	PrP UTR inh	Bead autofluor	ugtP null kill	Mtb hypoxia inh	Mtb hypoxia inh growth
CCOc1ccc(NS(=O)(=O)c2cc(NC(=O)CCNC(=O)c3ccco3)ccc2OC)cc1	nt	-5.1	-33	4065	24	12	8
Cc1ccc(NS(=O)(=O)c2ccc(-c3ccc(=O)[nH]n3)o2)cc1N(C)C	8	6.7	-10	5051	12	0	1
O=C(O)CCSCC(=O)Nc1c(C(=O)C2CC2)oc2ccccc12	3	1.1	-14	4048	-6	nt	nt
CCOC(=O)CN(C(=O)CNC(=O)c1ccco1)C(C(=O)NC1CCCCC1)c1cccc(OC)c1 (configuration not stated)	-19	-0.9	-21	3003	3	nt	nt

Complete entries, quoted from the list.
Record of `CN(CC(=O)Nc1ccc(F)cc1[N+](=O)[O-])Cc1ccccc1` → BJeLR lethal: 5; Sa RN4220 lethal: 3.0; PrP UTR inh: -31; Bead autofluor: 4087; ugtP null kill: 2; Mtb hypoxia inh: 3; Mtb hypoxia inh growth: 14
Record of `COc1cc(NC(=O)[C@H]2CSCN2C(=O)[C@@H]2CCC(=O)N2)cc(OC)c1OC` → BJeLR lethal: -2; Sa RN4220 lethal: 1.2; PrP UTR inh: -2; Bead autofluor: 5631; ugtP null kill: 1; Mtb hypoxia inh: 6; Mtb hypoxia inh growth: 17

The listing continues:
SMILES	BJeLR lethal	Sa RN4220 lethal	PrP UTR inh	Bead autofluor	ugtP null kill	Mtb hypoxia inh	Mtb hypoxia inh growth
C/C(CC(=O)Nc1cc(C)ccn1)=N\NC(=O)c1ccc(C(C)(C)C)cc1	-1	nt	-12	6900	nt	nt	nt
CNCC(O)c1cccc(O)c1 (configuration not stated)	nt	8.7	nt	nt	2	-5	-3
O=C(CCS(=O)(=O)c1ccc(Br)s1)NCc1cccs1	2	0.2	0	11081	3	0	10
CC12CC[C@H]3[C@@H](CCC4(O)C[C@H](O)CCC34C=NNC(=O)c3ccccc3Cl)C1(O)CCC2C1=CC(=O)OC1 (some centres not stated)	nt	-2.3	nt	nt	-11	-15	-13
CN(C)CCCN1C(=O)C(O)=C(C(=O)c2cc3ccccc3o2)C1c1ccccc1 (configuration not stated)	-3	-6.4	12	2310	9	nt	nt
O=C(CCn1cccc1)NCc1ccc(Cl)cc1	7	-11	-34	2946	-7	nt	nt
COc1ccc(CCn2c(N)c(C(=O)NCc3ccco3)c3nc4ccccc4nc32)cc1	-14	-4.1	0	2236	21	-1	7
CC(CCc1ccccc1)NC(=O)CN(C)Cc1ccc(F)cc1 (configuration not stated)	-4	-1.0	-16	4043	2	8	-6
CCOC(=O)C1CCCN(C2=NC(=O)/C(=C/c3ccc(OC)cc3)S2)C1 (configuration not stated)	-1	3.0	-3	2933	3	10	7
CCO[C@H]1OC(C(N)=O)=C[C@@H](c2ccccc2)[C@@H]1CCCO	-9	nt	-19	3085	nt	nt	nt
Cc1ccccc1OCCN1CCCC1	-2	2.2	-16	4358	7	5	2
COc1c(C)cc(Br)cc1C(=O)Nc1ccc(C)cc1[N+](=O)[O-]	1	2.4	-40	3136	4	6	-1
O=C(O)Cn1c2c(c3ccccc31)CSc1ccc(Cl)cc1-2	0	-1.9	-4	4006	13	-2	-2
Cn1cc(C(=O)NC2CCCCC2)c(=O)c2cc(S(=O)(=O)N3CCCC3)ccc21	-8	5.0	-30	8988	4	19	9
N#CC1=C(SCC(=O)c2ccc(Cl)cc2)NC2=C(C(=O)CCC2)C1c1ccco1 (configuration not stated)	21	4.9	-12	3233	-4	3	21
COc1ccccc1CNC(=O)CCN=C1NS(=O)(=O)c2ccccc21	nt	-0.5	nt	nt	5	7	4
CCCCN(CCCC)C(=O)CCS(=O)(=O)c1ccc2c(c1)n(C)c(=O)c(=O)n2C	-3	-15	-6	3483	-2	17	6
O=C(CCS(=O)(=O)Cc1ccc(Cl)cc1)NCCc1ccccc1	10	5.2	1	4772	4	10	-4
Cc1nc(-c2cn[nH]c2)c2cc(C)oc2n1	4	2.6	-7	4213	3	nt	nt
COc1cccc(C=CC(=O)Nc2ccc(OC)nc2)c1	nt	0.4	nt	nt	-10	5	2
Cc1ccc2nc(SCC(=O)N3CCCC3)nc(=O)n2c1	13	1.5	-23	6175	3	6	2
Cc1cccc(NS(=O)(=O)c2ccc(C(=O)NCCCN3CCOCC3)cc2)c1C	3	2.4	-14	?	5	5	2
O=C(C1CC1)N1CCN=C1SCc1cccc(C(F)(F)F)c1	6	2.4	-18	4584	9	nt	nt
COc1ccc(CCNC(=O)CSc2ccc(-c3cccs3)nn2)cc1	3	3.5	-15	4288	2	10	9
CC(=O)Oc1ccc(S(=O)(=O)c2ccc(OC(C)=O)cc2)cc1	nt	2.8	-26	4350	5	6	2
COc1ccccc1NC(=O)C1=C(C)NC(=O)NC1c1ccc(C)cc1 (configuration not stated)	nt	5.0	-12	5766	-4	7	5
CCCNC(=O)c1c(N)n(-c2ccc(S(N)(=O)=O)cc2)c2nc3ccccc3nc12	0	nt	-19	3126	nt	nt	nt
